# PMP22 txn prim = Cell-based coincidence reporter assay to measure PMP22 gene transcription in S16 Pmp22-F2sN cells - Primary screen. S16 Pmp22-F2sN Schwann cells (luciferase reporters placed in the Pmp22 gene), FLuc/NLuc coincidence luminescence, 24 h. Potency, µM (titrated, usually from 57.5 µM), for the others: at the highest dose activity change, negative = inhibition, usual class: inhibitors. 43,000 compounds, 2% hits. AID 1508649, 2021; active = clear falling dose curves in both reporters; inconclusive = both reporters move, but less clearly or upward; inactive = either reporter flat; the % is the NLuc reporter signal; also: % is scaled to controls: 0 for no effect and ±100 for the full control effect; some results filed as inactive show a strong effect at the top dose
#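 Reporter cells (S16 Pmp22-F2sN, 500–1,000 per well) exposed to compounds for 24 h, 37C, 5% CO2; lysis with FLuc read after 10 min, then Stop&Glo and NLuc read after 10 min.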
# HTT prom inh = Primary qHTS for Identification of Small Molecule Inhibitors of Huntingtin Promoter Activity; HEK293 HTT promoter firefly luciferase reporter (activity 0% = vehicle and -100% = no light), 24 h; Potency, µM (highest dose often 57.5 µM), inactives show top-dose activity change, negative = inhibition, actives largely listed as inhibitors; 48,000 compounds, 0.93% hits; active = well fitted inhibition curve with a large enough effect; inconclusive = small, poorly fitted or top-dose-only effect; inactive = no such curve, though single readings can be large or run the other way; also: nearly all actives have a fitted effect of over 50% in size
#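 HEK293 Fluc reporter, 2,500 cells/well, 24 h pre-culture; cpds up to 57.5 uM final, 24 h 37 degrees C; Dual-Glo, 10 min RT; normalized vehicle = 0%, zero RLU = -100%.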
# Starred values were filed as active, the others as inactive; ? = inconclusive; . = not tested or not shown; & = joins results of further samples; [ ] = remark or other dose. Potency is read from the fitted curve at half-maximal effect.
SMILES,PMP22 txn prim,HTT prom inh
CC(C)c1ccc(NC(=O)CN2C(=O)C3(SCC(=O)N3c3ccc(F)cc3)c3ccccc32)cc1 (stereo unspecified),?,?
Cc1ccc(NS(=O)(=O)c2ccc3c(c2)n(C)c(=O)n3C)c(C)c1,?,-15%
C=Cc1ccc(Cn2c(C(=O)O)c(CNCc3ccc(F)cc3)c3ccc(C)cc32)cc1,?,?
CCOC(=O)N1CCN(Cc2nc3cc(NC(C)=O)ccc3n2C(C)C)CC1,?,?
Cc1[nH]c2ccc(C(=O)NCCc3ccccc3Cl)cc2c1C,9%,34%[activator]
Cc1nc2ccccn2c(=O)c1NC(=O)c1ccccc1Cl,-8%,32%
Cc1ccccc1C(=O)Nc1nnc(SCc2cc(=O)c3c(C)ccc(C)c3[nH]2)s1,?,?
COc1cc(Cl)c(C)cc1NC(=O)CSc1cc(=O)n(C)c2cc(Cl)ccc12,5%,-6%
COc1ccc(CNC(=O)CSc2ncc3c(n2)-c2cc(Cl)ccc2N(C)S3(=O)=O)cc1,-14%,-21%
COc1ccc2c(c1)-c1nc(NC(=O)c3ccc(C)cc3)sc1CC2,?,-5%
Cc1cc(O)c(CN2CCN(c3ccccc3)CC2)c2oc(=O)cc(C)c12,-17%,3%
CCn1c(NCc2cccc(Cl)c2)nc2ccccc21,-1%,-13%
COc1ccc(C(=O)NCCn2cc(SCC(=O)NCCc3ccc(OC)c(OC)c3)c3ccccc32)cc1,?,?
COc1ccc(NC(=O)Nc2nnc(SCC(=O)Nc3cccc(C)c3C)s2)cc1,-19%,11%
CCOc1ccc(NC(=O)c2oc3ccccc3c2NC(=O)c2c(F)cccc2F)cc1,-6%,-15%
CCOc1cc(C2C(C(=O)Nc3ccccc3)=C(C)Nc3ncnn32)cc(Br)c1O (stereo unspecified),10%,-6%
COc1ccccc1C(=O)NCc1ccc2c(c1)CCN2C(=O)c1cccc(C)c1,-1%,-29%
CSc1cccc(NC(=O)C2CCN(c3nc4ccccc4[nH]3)CC2)c1,11%,-5%
CCc1ccccc1NC(=O)CCCN1C(=O)CCn2nc(-c3cn(C)c4ccccc34)cc21,13%,-6%
COc1cccc(CNC(=O)c2ccc3c(c2)nc2n3CCOC2)c1OC,-9%,0%
COc1cccc(CC(=O)Nc2ccc3nc(Nc4cccc(C(F)(F)F)c4)cc(C)c3c2)c1,?,-30%
CC(C)c1ccc2oc(-c3cccc(NC(=O)c4ccc5c(c4)OCCO5)c3)nc2c1,?,-11%[11.5 µM]
COc1cccc(CNC(=O)Cc2c(C(=O)O)c(C)cn2C)c1,-3%,-12%
COc1ccc(-c2nn(C)c3sc(C(=O)N4CCN(c5cccc(C)c5C)CC4)cc23)cc1OC,-16%,-4%
Cc1ccc(C2c3c(oc4ccccc4c3=O)C(=O)N2c2ccc(C)cn2)cc1 (stereo unspecified),4%,-9%

# Gathered by group, the compounds so far with two or more sulfur atoms.
SMILES,PMP22 txn prim,HTT prom inh
Cc1ccccc1C(=O)Nc1nnc(SCc2cc(=O)c3c(C)ccc(C)c3[nH]2)s1,?,?
COc1ccc(CNC(=O)CSc2ncc3c(n2)-c2cc(Cl)ccc2N(C)S3(=O)=O)cc1,-14%,-21%
COc1ccc(NC(=O)Nc2nnc(SCC(=O)Nc3cccc(C)c3C)s2)cc1,-19%,11%

# Following part:
SMILES,PMP22 txn prim,HTT prom inh
O=C(Nc1ccc(F)c(Cl)c1)C1CCN(S(=O)(=O)c2ccc3c(c2)CCCN3C(=O)C2CCC2)CC1,?,?
CCN1CCN(C(=O)c2ccc3c(c2)N(Cc2cc(C)ccc2C)C(=O)c2ccccc2S3(=O)=O)CC1,-29%,-17%
CCc1c(C)sc2c1CCN(C(=O)Nc1cc(C)ccc1OC)C2c1ccc(F)cc1 (stereo unspecified),?,?
Cc1cc(S(=O)(=O)Nc2cc3c(cc2C)n(C)c(=O)c(=O)n3C)ccc1F,?,-16%
O=S(=O)(c1ccc(-n2cnnn2)cc1)N1CCN(c2ccccc2F)CC1,-18%,-13%
COc1ccc(Oc2nc3c(c(=O)n(C)c(=O)n3C)n2Cc2ccc(Cl)cc2Cl)cc1,-14%,-13%
CCOC(=O)c1ccc2[nH]c(CSc3nnc(-c4cccc(F)c4)n3C)cc(=O)c2c1,0%,2%
CCOC(=O)C1CCCN(S(=O)(=O)c2csc(C(N)=O)c2)C1 (stereo unspecified),-29%,?
CCOC(CN1CCN(CC(C)C(=O)c2ccccc2)CC1)c1ccccc1 (stereo unspecified),.,-10%[25.2 µM]
COc1ccc(Cn2c(SCC(N)=O)nc3c(sc4ccccc43)c2=O)cc1,12µM*,10%
NC1=NC(c2cc(F)cc(F)c2)n2c(nc3ccccc32)N1 (stereo unspecified),4%,-18%
CC(=O)c1cccc(NC(=O)CSc2nc(=O)n(Cc3cccnc3)c3c2CCC3)c1,-3%,-25%
COc1ccc2c(Sc3ccccc3)c(C(=O)NCC(C)c3ccccc3)[nH]c2c1 (stereo unspecified),-12%,16%
COc1ccc(N2CCN(C(=O)C3CCCN(S(=O)(=O)c4ccc5c(c4)CCCN5C(C)=O)C3)CC2)cc1 (stereo unspecified),14µM*,?
O=C1CCCc2c(O)cccc21,.,10%
CC(=O)Nc1nonc1-c1nnc(SCC(=O)Nc2cc(C)cc(C)c2)n1-c1ccccc1,?,?
COc1cc(OC)c(C(=O)NCc2nc(-c3ccccc3)no2)cc1OC,-17%,-19%
Cc1cccc(NC(=O)c2cc(S(=O)(=O)NCc3ccc4c(c3)OCO4)ccc2F)c1C,3%,-29%
COc1ccc(CNCCCSc2nnnn2-c2ccccc2)cc1,3%,-18%
COc1ccc(NC(=O)c2c(NCc3cccc(OC)c3)sc3c2CCCC3)cc1,?,-26%
CCC(Nc1ccc(-c2nc(-c3ccccn3)no2)cc1[N+](=O)[O-])c1ccccc1 (stereo unspecified),?,38%[activator]
COc1cc(NC(=O)CCS(=O)(=O)c2ccc3c(c2)CC(=O)N3C)cc(OC)c1OC,-18%,-5%
COc1ccc(Cn2ccc3nc(C)c(C(=O)Nc4ccc(OC)c(OC)c4)cc3c2=O)cc1,25%,-12%
O=c1c2cc3c(cc2n(Cc2ccc(F)cc2)c(=O)n1Cc1nc(-c2ccccc2)no1)OCO3,-21%,-6%
O=C(Cc1ccc(F)cc1)Nc1nnc2n1CCS2,-36%,-5%

# Sorted by formula weight (low to high): some entries from above
SMILES,PMP22 txn prim,HTT prom inh
CCOC(=O)C1CCCN(S(=O)(=O)c2csc(C(N)=O)c2)C1 (stereo unspecified),-29%,?
COc1cc(OC)c(C(=O)NCc2nc(-c3ccccc3)no2)cc1OC,-17%,-19%
CCOC(CN1CCN(CC(C)C(=O)c2ccccc2)CC1)c1ccccc1 (stereo unspecified),.,-10%[25.2 µM]
COc1ccc(Cn2ccc3nc(C)c(C(=O)Nc4ccc(OC)c(OC)c4)cc3c2=O)cc1,25%,-12%
COc1ccc(Oc2nc3c(c(=O)n(C)c(=O)n3C)n2Cc2ccc(Cl)cc2Cl)cc1,-14%,-13%

# (next part)
SMILES,PMP22 txn prim,HTT prom inh
COc1ccc(OCC(=O)Nc2nnc3n2CCS3)cc1,-16%,-4%
Cc1ccc(CCNC(=O)C2CCCN(c3nnc(C)c4c(C)n(-c5ccccc5)nc34)C2)cc1 (stereo unspecified),?,-2%
CC1=C(c2ccc(C(C)C)cc2)S(=O)(=O)N=C1N1CCC(C(=O)NCc2ccco2)CC1,-19%,-24%
c1cc(CN2CCCCC2)cc(OCCCNc2nc3ccccc3s2)c1,.,-9%
N#Cc1ccc(CN2C(=O)c3ccccc3Sc3ccc(C(=O)OCc4ccco4)cc32)cc1,-7%,-19%
Cc1ccc2ncc3c(-c4ccc(F)cc4)nn(-c4cccc(F)c4)c3c2c1,-27%,-23%
COc1ccc(-c2noc(-c3ccc(NC4CCCC4)c([N+](=O)[O-])c3)n2)cc1OC,-12%,-9%
CCOC(=O)c1ccc(NC(=O)C2=C(C)Nc3nc(SCc4ccc(Cl)cc4)nn3C2c2ccc(C)cc2)cc1 (stereo unspecified),-1%,2%
O=C(NCC(c1ccco1)S(=O)(=O)c1cccs1)c1ccc(C(F)(F)F)cc1 (stereo unspecified),-8%,-23%
Cn1cnc(S(=O)(=O)N2CCC(C(=O)Nc3ccc(C#N)cc3)CC2)c1,-25%,-17%
COc1ccc(-c2noc(-c3ccc(N4CCN(c5ccccc5)CC4)c([N+](=O)[O-])c3)n2)cc1OC,4%,-8%
Cc1cccc2c(=O)cc(CSc3ccccc3NC(=O)c3cccc(Cl)c3)[nH]c12,-5%,-2%
CCOc1ccc(-c2nnc(SCC(=O)Nc3ccc(C)cc3Cl)o2)cc1,?,?
O=C(Cn1ncc2c3ccccc3n(Cc3ccccc3)c2c1=O)NCc1ccccn1,-18%,15%
CCc1ccccc1NC(=O)CN1C(=O)c2cccnc2Oc2ccc(Cl)cc21,4%,-16%
COc1cccc(NC(=O)CCNS(=O)(=O)c2ccc3c(c2)CCCC(=O)N3)c1,5%,-6%
CCn1nc(-c2ccccc2)c(-c2ccccc2)c(C(=O)Nc2nc(C)c(C(=O)N(C)C)s2)c1=O,-8%,5%
O=C(COc1ccc(Cl)cc1)NCC(c1ccco1)S(=O)(=O)c1ccc(F)cc1 (stereo unspecified),-13%,?
Cc1ccc2c(=O)cc(C(=O)Nc3cccc(Cl)c3C)oc2c1C,-6%,-5%[11.5 µM]
Cc1cc(N2CCN(C)CC2)nc2ccc(NC(=O)Nc3ccccc3)cc12,?,62%[activator]
COc1cc(NC(=O)c2cc(C)nc3c2c(C)nn3-c2ccccc2Cl)cc(OC)c1,-28%,-25%
COc1ccc(CCn2c(=O)[nH]c3cc(C(=O)N4CCN(c5ccccc5)CC4)ccc3c2=O)cc1OC,?,?
COc1cc(NC(=O)CC2C(=O)N(c3ccccc3)C(=O)N2Cc2ccc(F)cc2)cc(OC)c1 (stereo unspecified),8%,-14%
O=C(NCC1CN(c2ccc(N3CCOCC3=O)cc2)C(=O)O1)c1ccc(Cl)s1 (stereo unspecified),.,-13%&-18%
COc1cccc(CNC(=O)Nc2cn(CC(C)C)c(=O)c3ccccc23)c1,-1%,-12%

# (cont.)
SMILES,PMP22 txn prim,HTT prom inh
CC(C)Cc1ccc(S(=O)(=O)Nc2ccc3[nH]c(=O)[nH]c3c2)cc1,?,?
CCc1ccccc1-n1cnc2cc(C(=O)NC3CCCCCC3)ccc21,-45%,-29%
C=Cc1ccc(CN2C(=O)c3ccccc3Sc3ccc(C(=O)OCc4ccco4)cc32)cc1,-2%,-29%
CCc1ccc(NC(=O)CC2C(=O)OCCN2CC)cc1 (stereo unspecified),15µM*,-2%
COc1cc(OC)c(NC(=O)Nc2nnc(N(C)C3CCCCC3)s2)cc1Cl,?,5%
CC1CCCCN1S(=O)(=O)c1cc2c3c(c1)CC(=O)N3CCC2 (stereo unspecified),-15%,-21%
Cc1cc(C)c(OCC(=O)N(Cc2ccco2)Cc2ccco2)c(C)c1,?,-19%
COc1ccc(-c2cc(C(F)(F)F)nc(SCC(=O)NCCc3ccccc3)n2)cc1,-20%,-10%
CCCCCn1c(NCc2ccc(OC)cc2)nc2ccccc21,?,-45%
Cc1ccc(-c2nc3c(c(SCC(=O)N(C)c4ccccc4)n2)Cc2c(CO)cnc(C)c2O3)cc1,?,?
CCc1ccc(CNC(=O)Cn2nc(C)c3c(C)n(-c4ccc(C)cc4)nc3c2=O)cc1,8%,-6%
CN(C)c1ccc(NC(=O)CSc2nc(-c3ccco3)cc(C(F)(F)F)n2)cc1,-19%,-22%
Clc1ccc(OCc2nc(-c3ccc(-n4cccc4)cc3)no2)cc1,-3%,-14%[11.5 µM]
CC(=O)Nc1c(C(=O)Nc2cccc(C)c2)nnn1-c1ccc(C)cc1,?,17%
Cc1cccc(NC(=O)c2cc(S(=O)(=O)N3CCC4(CC3)OCCO4)ccc2F)c1,-24%,?
CCn1c2ccccc2c2cc(NC(=O)COc3ccc(C)cc3C)ccc21,-7%,1%
COc1cccc(C(=O)Nc2ccccc2-c2nnc(-c3ccc(C(C)(C)C)cc3)o2)c1,-7%,-16%
CC(C)(C)OC(=O)N1CCC(c2c(C(=O)Nc3ccc4c(c3)OCCO4)cnn2-c2ccc(Cl)cc2)CC1,?,?
COCCn1c(=NC(=O)c2ccc3c(c2)OCCO3)sc2cc(NC(C)=O)ccc21,?,13%
COc1ccc(CCN2C(=O)c3[nH]nc(-c4ccccc4O)c3C2c2ccc(OC)cc2)cc1 (stereo unspecified),?,?
Fc1ccc(-n2ncc3c(NCCCN4CCOCC4)ncnc32)cc1,3%,10%
O=C(OCC#CCSc1nnc(-c2cccc3ccccc23)o1)c1cc2ccccc2s1,.,24%
CC1CN(C(=O)Nc2ccc(C(=O)NCCc3ccccc3)cc2)c2ccccc2S1 (stereo unspecified),1%,-27%
COc1ccc(-c2nc(CNS(=O)(=O)c3ccc(F)cc3)cs2)cc1,-48%,?
CCCC12CN3CC(C)(CN(C1)C3c1ccc(CC)cc1)C2=O (stereo unspecified),0%,-8%

# Entries of single compounds as entered above. Order of values: PMP22 txn prim, HTT prom inh
# Clc1ccc(OCc2nc(-c3ccc(-n4cccc4)cc3)no2)cc1 as listed: -3%, -14%[11.5 µM]
# COc1ccc(-c2cc(C(F)(F)F)nc(SCC(=O)NCCc3ccccc3)n2)cc1 as listed: -20%, -10%
# CCc1ccc(CNC(=O)Cn2nc(C)c3c(C)n(-c4ccc(C)cc4)nc3c2=O)cc1 as listed: 8%, -6%
